# NPSR antag: antagonists of human neuropeptide S receptor cAMP signaling. Q6W5P4. CHO-NPSR cells, cAMP TR-FRET, antagonist mode. Potency, µM (highest dose often 38.3 µM), inactives show at the top dose activity change, negative = inhibition, most hits filed as inhibitors. 220,000 compounds, 1% hits; note: % is set by controls: 0 for no effect and ±100 for the full control effect; nearly all actives have a fitted effect of over 50% in size; many of its hits are not listed in these tables
# Target sequence (Q6W5P4 whole entry, looked up): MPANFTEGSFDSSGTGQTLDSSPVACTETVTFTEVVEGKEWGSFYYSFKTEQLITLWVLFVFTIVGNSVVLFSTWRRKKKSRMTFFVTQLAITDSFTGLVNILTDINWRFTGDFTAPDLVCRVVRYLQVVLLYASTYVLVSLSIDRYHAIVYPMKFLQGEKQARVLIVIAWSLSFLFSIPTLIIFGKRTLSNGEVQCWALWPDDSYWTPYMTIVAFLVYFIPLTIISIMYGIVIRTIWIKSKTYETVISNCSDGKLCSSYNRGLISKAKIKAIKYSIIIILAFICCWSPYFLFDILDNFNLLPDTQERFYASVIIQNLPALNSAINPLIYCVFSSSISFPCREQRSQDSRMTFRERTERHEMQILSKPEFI
# Epigenetic reg: derepresses silenced GFP reporter in murine cells; murine LDR cells, GFP reporter derepression, 30 h; Potency, µM (top dose mostly 53.9 µM), inactives show at the highest dose GFP activation, hits mostly activators; 280,000 compounds, 0.2% hits; note: % of control where 0% means no effect; nearly all actives have a fitted effect of over 60% in size
#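 Readout is the number of GFP-expressing murine LDR cells, counted by cytometry following washing. Cells were treated with compound for 30 h at 37 C; the stably integrated CMV-GFP locus is normally silent.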
# KinaseGlo FLuc: blocks Kinase-Glo luciferase, a counter-screen artifact; 200,000 compounds, 0.28% hits; Potency, µM (highest dose often 38.3 µM), without a hit: top-dose activity change, negative = inhibition, actives largely listed as inhibitors; AID 1379; Kinase-Glo luciferase, ATP luminescence, 8 min; Q27757; note: % is set by controls: 0 for no effect and ±100 for the full control effect; nearly all actives have a fitted effect of over 60% in size
#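 Compound is pinned into ATP-containing buffer (10 uM ATP, imidazole pH 7.2, 7 mM MgCl2). Kinase-Glo luciferase reagent is then added. Light output is recorded following an 8-min room-temperature incubation.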
# LMNA splice mod: modulators of lamin A splicing; Potency, µM (highest dose often 46.1 µM), for the others: top-dose ratio change, negative = inhibition, actives largely listed as inhibitors; AID 1487; HeLa LMNA splicing GFP/RFP minigene ratio, 48 h; 200,000 compounds, 0.01% hits; active = well fitted inhibition curve with a large enough effect in the signal ratio, with a control signal flat, not every such curve was filed as active; inconclusive = small, poorly fitted or top-dose-only effect, or effect the other way, or a change in a side signal; the % refers to the signal ratio; note: % is set by controls: 0 for no effect and ±100 for the full control effect
#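 Read-out is the ratio of GFP to DsRed2 object intensity, acquired by 488 nm laser-scanning cytometry on HeLa lamin A-EGFP minigene reporter cells. Compound incubation 48 hrs at 37 °C in Opti-MEM with 2% FBS; DMSO 0.5% final.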
# GLA spleen mod: inhibits or activates alpha-galactosidase in human spleen homogenate | human spleen homogenate, 4MU-alpha-Gal fluorescence, 40 min | Potency, µM (doses to about 80 µM), without a hit: at the highest dose activity change, negative = inhibition, actives largely listed as inhibitors | 240,000 compounds, 0.008% hits | AID 2107;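 note: 0% = enzyme with vehicle and -100% = no enzyme basal signal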
# Target sequence (P06280 32-429 limits assumed): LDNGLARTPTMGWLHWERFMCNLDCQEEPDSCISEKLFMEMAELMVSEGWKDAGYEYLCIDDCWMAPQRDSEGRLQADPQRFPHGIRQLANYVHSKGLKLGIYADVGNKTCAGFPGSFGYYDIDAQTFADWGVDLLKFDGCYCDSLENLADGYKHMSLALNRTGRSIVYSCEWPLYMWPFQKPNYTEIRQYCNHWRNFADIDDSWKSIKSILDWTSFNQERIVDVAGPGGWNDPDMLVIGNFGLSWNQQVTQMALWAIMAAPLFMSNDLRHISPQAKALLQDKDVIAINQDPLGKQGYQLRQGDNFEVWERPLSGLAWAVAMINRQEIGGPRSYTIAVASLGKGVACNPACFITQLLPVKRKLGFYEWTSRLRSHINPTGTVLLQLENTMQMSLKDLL
#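 Spleen homogenate 1 ug + cpd (titration) + 4-MU-alpha-D-galactopyranoside 1 mM; 37C 40 min; 50 mM citrate/phosphate pH 5.0, 0.01% Tween-20; stop pH 10; fluorescence 365/440; AC50 via Hill.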
# The depositor's hits bear a star; ? = inconclusive; / = no result given; & = joins results of further samples; [ ] = dose if it differs, or a comment. Unless noted, calls come from the whole dose curve; as a rule, active = well fitted curve in the direction sought with a large enough effect; inconclusive = small, poorly fitted or top-dose-only effect, or another doubt; inactive = no such curve, though single readings can be large; an effect the other way counts as inactive or inconclusive. Potency is the fitted concentration of half-maximal effect. An excerpt; the hit share may differ from the screen's.
Molecule,LMNA splice mod,NPSR antag,Epigenetic reg,GLA spleen mod,KinaseGlo FLuc
N=c1c2c(-c3ccccc3)c(-c3ccccc3)n(Cc3ccccc3)c2ncn1CCCO,?,?,0.0%,5%,0%
Nc1nc2c(ncn2COC(CO)CO)c(=O)[nH]1,?,-3%,-1.0%,-6%,2%
CC(=O)Nc1cccc(OCc2cnc(Cl)s2)c1,-5%[46 µM],-17%,-4.5%,5%,5%
O=C(O)CCCCC1CCSS1 (configuration not stated),?,-4%,1.1%&-1.3%&-2.9%,1%&6%&-3%&2%,-2%&-4%&0%
O=C(O)CC(C(=O)O)C(CC(=O)O)C(=O)O (configuration not stated),/,/,/,-7%,/
O=C(Oc1ccccc1)c1c(Cl)cccc1P(=O)(O)O,2%,-8%[7.67 µM],0.3%,9%,-1%
S=c1nc(-c2cccc(Br)c2)[nH][nH]1,4%,-2%[46.1 µM],-4.2%,-3%,2%
COc1ccccc1NS(=O)(=O)c1cc(C(=O)N2CC(C)CC(C)C2)ccc1C (configuration not stated),-13%,-25%[46.1 µM],-0.7%,-15%,0%
CCN(CC)CCOc1ccc(C(O)(Cc2ccc(Cl)cc2)c2ccc(C)cc2)cc1 (configuration not stated),/,/,/,-12%,/
O=C(c1ccccc1)C(O)c1ccccc1 (configuration not stated),?,/,/,0%,/
CCOC(=O)c1ccc(NC(=O)CSc2nc3c(c(=O)n2CC)SC(C)C3)cc1 (configuration not stated),-20%,?,0.0%,-18%,4%
CC(C)C(=O)N1CCN(C2=NS(=O)(=O)c3ccccc32)CC1,5%,-1%[46.1 µM],-2.1%,1%,1%
C[C@@]12C=CC(=O)C=C1CC[C@@H]1[C@@H]2[C@H](O)C[C@]2(C)[C@@H]1CC[C@]2(O)C(=O)CO,11%,/,-0.3%[16.9 µM],-7%[29.1 µM],-4%[17.1 µM]
COc1cccc(NC(=O)N(C2CCCCC2)C(C)c2cccs2)c1 (configuration not stated),4%,-3%[46.1 µM],4.7%,-2%,0%
CC1C/C(=N/O)C(C)CN1 (configuration not stated),1%,-2%[46.1 µM],-2.4%,11%,0%
O=C(/C=C/c1ccc(O)c(O)c1)O[C@@H]1C[C@@](O)(C(=O)O)C[C@H](O)[C@@H]1O,/,/,-1.1%,0%,-3%
COC(CNC(=O)c1ccc(N2CCCC2=O)cc1)OC,6%,7%[46.1 µM],0.1%,3%,-1%
CCCNC(=O)c1ccccc1NC(=O)COc1ccc(OC)cc1,5%,-14%[46.1 µM],-0.6%,0%,-2%
Cc1cc(C(C)(C)C)c(O)c(C(C)(C)C)c1,-7%,-9%,2.5%&0.4%,-3%&2%&-2%,-4%&0%
CCOC(=O)c1ccc(NC(=O)CCOc2ccc(OC)cc2)cc1,2%,-14%[46.1 µM],-3.6%,0%,0%
CCOc1ccccc1N1CCN(Cc2cn[nH]c2-c2ccc(F)cc2)CC1,/,?,1.2%,7%,/
CCN1CCN(C(=O)CS(=O)Cc2nc(-c3ccc(OC)cc3)oc2C)CC1 (configuration not stated),-1%,-5%[46.1 µM],1.0%,-5%,-1%
CC(=O)NC1(NC(C)=O)CCN(C)C(c2ccccc2)C1C (configuration not stated),-1%,-3%[46.1 µM],0.0%,3%,2%
Cc1ccc(NC(=O)Cn2nc(C)c3ccccc3c2=O)cc1F,-2%,11%[46.1 µM],0.8%,-4%,7%
Nc1cccc(S(=O)(=O)O)c1,/,/,/,-1%,/
Nc1ccc(S(=O)(=O)Nc2cnc3ccccc3n2)cc1,?,-4%,-0.9%,11%,2%[7.66 µM]
COc1ccccc1NC(=O)CSc1nccc(=O)[nH]1,3%,1%[46.1 µM],-2.1%,19%,0%
Cc1ccnc(SCC(=O)Nc2sc3c(c2C#N)CCC(C(C)(C)C)C3)n1 (configuration not stated),7%,-4%[46.1 µM],-0.7%,-1%,19%
CCN1C(=O)C=CC1=O,?,?,1.2%,-5%,-3%
C[C@]12CC[C@@H]3c4ccc(O)cc4CC[C@H]3[C@@H]1CCC2=O,?,4%,1.0%&-0.1%&1.1%,6%&-1%&10%,3%&0%

# Arranged by molar mass (high to low): some entries from above.
Molecule,LMNA splice mod,NPSR antag,Epigenetic reg,GLA spleen mod,KinaseGlo FLuc
CCN1CCN(C(=O)CS(=O)Cc2nc(-c3ccc(OC)cc3)oc2C)CC1 (configuration not stated),-1%,-5%[46.1 µM],1.0%,-5%,-1%
Cc1ccnc(SCC(=O)Nc2sc3c(c2C#N)CCC(C(C)(C)C)C3)n1 (configuration not stated),7%,-4%[46.1 µM],-0.7%,-1%,19%
CCOc1ccccc1N1CCN(Cc2cn[nH]c2-c2ccc(F)cc2)CC1,/,?,1.2%,7%,/
C[C@@]12C=CC(=O)C=C1CC[C@@H]1[C@@H]2[C@H](O)C[C@]2(C)[C@@H]1CC[C@]2(O)C(=O)CO,11%,/,-0.3%[16.9 µM],-7%[29.1 µM],-4%[17.1 µM]
COc1cccc(NC(=O)N(C2CCCCC2)C(C)c2cccs2)c1 (configuration not stated),4%,-3%[46.1 µM],4.7%,-2%,0%
O=C(/C=C/c1ccc(O)c(O)c1)O[C@@H]1C[C@@](O)(C(=O)O)C[C@H](O)[C@@H]1O,/,/,-1.1%,0%,-3%
CCOC(=O)c1ccc(NC(=O)CCOc2ccc(OC)cc2)cc1,2%,-14%[46.1 µM],-3.6%,0%,0%
CCCNC(=O)c1ccccc1NC(=O)COc1ccc(OC)cc1,5%,-14%[46.1 µM],-0.6%,0%,-2%
Cc1ccc(NC(=O)Cn2nc(C)c3ccccc3c2=O)cc1F,-2%,11%[46.1 µM],0.8%,-4%,7%
CC(=O)NC1(NC(C)=O)CCN(C)C(c2ccccc2)C1C (configuration not stated),-1%,-3%[46.1 µM],0.0%,3%,2%
COC(CNC(=O)c1ccc(N2CCCC2=O)cc1)OC,6%,7%[46.1 µM],0.1%,3%,-1%
COc1ccccc1NC(=O)CSc1nccc(=O)[nH]1,3%,1%[46.1 µM],-2.1%,19%,0%
C[C@]12CC[C@@H]3c4ccc(O)cc4CC[C@H]3[C@@H]1CCC2=O,?,4%,1.0%&-0.1%&1.1%,6%&-1%&10%,3%&0%
Cc1cc(C(C)(C)C)c(O)c(C(C)(C)C)c1,-7%,-9%,2.5%&0.4%,-3%&2%&-2%,-4%&0%
Nc1cccc(S(=O)(=O)O)c1,/,/,/,-1%,/
CC1C/C(=N/O)C(C)CN1 (configuration not stated),1%,-2%[46.1 µM],-2.4%,11%,0%
CCN1C(=O)C=CC1=O,?,?,1.2%,-5%,-3%

# Next compounds follow.
Molecule,LMNA splice mod,NPSR antag,Epigenetic reg,GLA spleen mod,KinaseGlo FLuc
CCN1C(=O)N[C@@H](c2ccccc2)C1=O,?,/,0.0%[16.9 µM],2%[29.1 µM],2%[17.1 µM]
COc1ccc(C2CC(=O)c3cnc(NC(=O)c4cccc(OC)c4)nc3C2)cc1 (configuration not stated),3%,-22%[46.1 µM],-0.2%,-16%,-1%
COc1cccc(C2=NOC(C(=O)NC(C)C)C2)c1 (configuration not stated),3%,-15%[46.1 µM],-1.1%,0%,5%
O=C(O)c1ccncc1,/,/,4.2%,-5%,/
O=S(c1ccccc1)c1ccc2nnnn2n1 (configuration not stated),/,/,-1.6%,15%&3%,1%
CC1(C)S[C@H]2[C@@H](NC(=O)C(N)c3ccccc3)C(=O)N2[C@H]1C(=O)O (some centres not stated),/,/,1.0%,0%,-1%
C[C@]12CCC3c4ccc(O)cc4CCC3C1CCC2=O (some centres not stated),/,/,1.1%,-11%,0%
Cc1nnc(SCC(=O)NCc2cccs2)[nH]c1=O,-1%,14%[7.67 µM],0.6%,6%,-3%
Cc1ccc(C(=O)CCC(=O)Nc2cccc(C(F)(F)F)c2)cc1,-11%,-2%[46.1 µM],-1.1%,1%,-4%
CC(=O)O[C@]1(C(C)=O)CC[C@H]2[C@@H]3C=C(C)C4=CC(=O)CC[C@]4(C)[C@H]3CC[C@@]21C,?,4µM*,-1.1%&0.0%,-4%&-11%,11%
O=C(C(Cc1ccccc1)N1C(=O)C2C3C=CC(C3)C2C1=O)N1CCCCCC1 (configuration not stated),9%,-12%[46.1 µM],-0.7%,-1%,0%
CCCC(O)(CCN1CCCCC1)c1ccc(OCC)cc1 (configuration not stated),-11%,5%[46.1 µM],0.0%,-3%,4%
O=C(Cn1ncc2c1-c1ccccc1OC2)N1CCc2ccccc21,?,-10%,1.0%,7%,1%
O=C(c1cccnc1)N1CCN(Cc2cccc(F)c2)CC1,-3%,-8%[46.1 µM],-1.7%,2%,-3%
C/C=C/c1ccc(OC)cc1,/,/,2.2%,-7%,-6%
Cc1ccc2cc(C)c3nnc(SCC(=O)N4CCN(C(=O)c5ccco5)CC4)n3c2c1,-11%,2%[46.1 µM],0.0%,5%,0%
CCC(C)C(NC(=O)OC(C)(C)C)C(=O)NCc1ccco1 (configuration not stated),-10%,-3%[46.1 µM],-0.4%,-1%,0%
Cc1cc(C)c2c(N)c(C(=O)NC3CC3)sc2n1,3%,-11%[46.1 µM],-1.1%,-2%,-1%
Cn1c(CCN2CCCCC2)nc2cc(NS(=O)(=O)c3ccccc3)ccc21,?,5%[46.1 µM],-1.7%,3%,-3%
CCn1cc(C(=O)O)c(=O)c2cc(F)c(N3CCN(C)CC3)cc21,?,-2%,0.0%&-0.7%,12%&9%,-6%&0%
CCOC(=O)c1cnn(-c2ccccc2)c1NC(=O)C(F)(F)C(F)(F)C(F)(F)F,-2%,-2%[46.1 µM],-0.2%,7%,-1%
CCCCCCCC(=O)O,?,/,/,1%&7%,/
COc1ccc2cc(CN(CCO)C(=O)c3ccc(Br)cc3)c(=O)[nH]c2c1,?,-16%[46.1 µM],-1.1%,-4%,1%
CC(=O)NS(=O)(=O)c1ccc(N)cc1,-5%&-7%&4%,16%,-4.0%,0%,6%

# Source: PubChem BioAssay
